# Compound activity deposited in PubChem BioAssay by several laboratories.
# Hsc70 ATP site: small molecules displacing fluorescent ligand from Hsc70 – biochemical, fluorescence polarization, primary screen (AID 568); Hsc70 fluorescence polarization, probe displacement; higher % means a stronger effect; strong numbers were not always called active; displacement, % at 20 µM, or IC50 in µM where a hit was titrated; 83,000 tested, under 10 active;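 active = displacement above 50% without optical interference and an IC50 on retest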;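 also: ATPase domain with a fluorescein-tagged ATP probe; 0% = vehicle and 100% = excess ADP; read after one hour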
# MT1-MMP reporter: inhibitors of MT1-MMP promoter transcription, cell-based, luciferase reporter, luminescence (AID 618) | MT1-MMP promoter luciferase reporter cells, luminescence | calls from a first round at 10 µM; hits with a dose series show EC50 in µM | 0.62% of 87,000 active;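 active = over half of the reporter light lost at 10 µM or EC50 under 50 µM; inactive = the rest and hits that failed the dose series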;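 also: actives suppress MT1-MMP promoter-driven transcription so potencies describe inhibitors; HT1080 fibrosarcoma cells; overnight exposure; toxic or luciferase-blocking compounds were not removed from the actives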
# WNV protease inh: inhibitors of West Nile virus NS2B-NS3 protease. P06935. WNV NS2B-NS3 protease, fluorogenic substrate Ex360/Em465; stronger effect = lower value. z-score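 (tested at a level between 10 and 100 µM)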. 0.18% of 65,000 active. AID 577;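 active = z-score at -3 or under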;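 also: score is relative to mean and spread of the compound wells of a plate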
# Target sequence (P06935 1371-1501 limits assumed): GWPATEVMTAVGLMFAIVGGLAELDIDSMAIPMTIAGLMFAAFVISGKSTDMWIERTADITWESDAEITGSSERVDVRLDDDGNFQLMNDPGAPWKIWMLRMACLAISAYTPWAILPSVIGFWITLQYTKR
# Target sequence (P06935 1502-1679 limits assumed): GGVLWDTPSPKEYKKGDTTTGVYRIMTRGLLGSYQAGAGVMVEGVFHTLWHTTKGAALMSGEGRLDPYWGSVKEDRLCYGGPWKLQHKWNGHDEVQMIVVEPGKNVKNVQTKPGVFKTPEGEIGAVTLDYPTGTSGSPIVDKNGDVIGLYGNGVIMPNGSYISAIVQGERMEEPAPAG
# An asterisk follows results filed as active; i = inactive; · = not tested or not shown. Not all compounds are listed (hit frequency here may not be typical).
SMILES,Hsc70 ATP site,MT1-MMP reporter,WNV protease inh
CCOc1ccc2nc(NC(=O)Nc3cccs3)sc2c1,9.3%,i,-0.99
O=C(NCc1ccco1)c1cnn2c1NC(c1ccccc1)CC2C(F)(F)F (stereo not given),-2.6%,i,-0.17
COc1ccc(NC(=O)CSc2nnc(Cc3cccn3C)n2CCc2ccccc2)c(OC)c1,-3.8%,i,-1.7
CCCC(=O)Nc1nnc(Cc2ccccc2)s1,-0.9%,i,-0.56
COC(=O)CSc1ccc(C#N)c(SCC(=O)OC)c1,-6.0%,i,·
Cc1nn(-c2ccccc2)c(C)c1C(=O)OCC(=O)N1CCN(S(=O)(=O)c2ccccc2)CC1,-0.4%,i,0.62
CCC(C)(C)n1nnnc1C(c1ccc(OC)c(OC)c1)N1CCN(c2cccc(OC)c2)CC1 (stereo not given),2.2%,i,-0.91
Cc1ccc(-n2nc(-c3ccco3)cc2C(=O)NCc2cccnc2)cc1,-2.5%,i,-0.51
Cc1ccccc1-n1nc2c(c1NC(=O)c1c(-c3ccccc3Cl)noc1C)CSC2,1.6%,i,-1.4
CC1=NOC2(C1)N(C)c1ccccc1C2(C)C (stereo not given),1.9%,i,0.13
O=C(NCc1ccccn1)c1ccc(Cn2cc(Br)cn2)o1,2.0%,i,0.2
Cc1nc(SCC(=O)NCc2ccccc2)c2oc3ccccc3c2n1,4.1%,i,·
CCOC(=O)c1[nH]c(CSc2nnc(-c3ccncc3)n2CCOC)c(C(=O)OCC)c1C,0.2%,i,-1.1
N#Cc1cnc2sc3ccccc3n2c1=N,1.6%,i,1.2
CN1C(=O)C2C=CC1C1C(=O)N(c3ccccc3)C(=O)C21 (stereo not given),1.2%,i,-0.63
COc1ccc2c(c1)C(=O)/C(=C/C=C/c1ccccc1)CC2,0.8%,i,·
O=C(O)c1ccc(-c2ccccc2)[nH]1,-1.9%,i,-0.29
Cc1nc2ccccc2c(=O)n1/N=C/c1ccc(O)cc1,0.3%,i,-1.3
Cn1c(SCC(=O)Nc2cccc(F)c2)nnc1-c1cc2ccccc2o1,-0.2%,i,-2
C(=C\c1ccccc1)/CSc1nnc(-c2ccccn2)n1Cc1ccco1,1.9%,i,0.46
COc1ccc(CCNC(=O)Cn2nnc(-c3ccccc3F)n2)cc1OC,7.6%,i,·
CSc1ccc(NC(=O)NCCCN2CCN(c3ccccc3F)CC2)cc1,-0.9%,i,-0.96
CC(=O)c1c(NC(=O)C(C)C)nc(C)nc1-c1ccccc1,-5.6%,i,0.93
COc1ccccc1OCc1ccc(C(=O)OCC2CCCO2)o1 (stereo not given),2.7%,i,-1
CC1CCC/C(=C\Nc2ccccc2C(=O)O)C1=O (stereo not given),-6.5%,i,-0.33
CC(C)(C)NC(=O)C(c1ccc(OCC(N)=O)cc1)N(C(=O)c1cccnc1)C1CC1 (stereo not given),-3.6%,i,-1.9
CSc1nc(NC(C)(C)C)nc(Oc2ccc(=O)n(C)n2)n1,2.1%,i,·
COc1ccc(-c2nnc3sc(COc4ccccc4)nn23)cc1,-0.3%,i,-0.64
CN=Cc1sc2ccccc2c1O,0.0%,i,1.8
CCOC(=O)c1ccc2nc(C(F)(F)F)[nH]c(=O)c2c1,-2.1%,i,0.06
O=C1CC(c2ccccc2)CC2=C1CN(C1CCCCC1)CN2 (stereo not given),-1.7%,i,1.3
Cn1cccc1C(=O)NC(=O)CSc1cccc[n+]1[O-],3.3%,i,0.4
CC1CCCN(C(=O)c2ccc3nc[nH]c3c2)C1 (stereo not given),1.5%,i,-1.1
Cn1c(N2CCCC2)nc2c1c(=O)n(Cc1ccc(Cl)cc1)c(=O)n2C,2.8%,i,-1.5
O=C(Cn1c(C(=O)N2CCN(C3CCCC3)CC2)cc2sccc21)c1ccccc1,1.8%,i,-0.2
Cc1nnc(SCC(=O)Nc2nc(-c3ccccc3)cs2)n1N,-2.6%,i,-0.26
CCN(CC)c1ccc2cc(-c3nnc(-c4ccncc4)o3)c(=O)oc2c1,-158%,i,-0.04
CCC(C#CCN1CCCCC1)(CC)OCCC#N,-1.3%,i,-1.2
O=C(CN1CCCC1)NC1C2CC3CC(C2)CC1C3 (stereo not given),-2.2%,i,·
CC(C)Cc1[nH]c(=O)c(C#N)c2c1CCCC2,-6.9%,i,-0.28
Cc1cccc(N2CCN(C(=O)CCn3c(=S)[nH]c4cc5c(cc4c3=O)OCO5)CC2C)c1 (stereo not given),0.3%,i,-0.73
COC(=O)c1cccc(NC(=O)C2C3CCC(C3)C2C(=O)O)c1 (stereo not given),-2.1%,i,-0.52
C=CCNc1ncnc2c1cnn2-c1ccc(Cl)cc1,-3.7%,i,-0.69
CC1CC(C)(C)NC(C)c2ccccc21 (stereo not given),-0.5%,i,1.5
Cc1cnc(C(=O)Nc2ccc(F)c(F)c2)cn1,-5.6%,i,-0.34
CC(C)c1nnc(NC(=O)Cc2cccs2)s1,3.0%,i,-0.0091
Cc1nn(CC(C)C)c(=S)[nH]c1=O,-2.2%,i,-0.86
CCOC(=O)c1c(C(=O)OCC)c(C)n(N2C(=O)CSC2=S)c1C,-5.6%,i,0.14
COc1ccc(CNC(=O)C2CCCN2S(=O)(=O)c2ccccc2)cc1 (stereo not given),1.6%,i,-1.2
CCOC(=O)C1=C(c2ccccc2)OC(N)=C(C#N)C1C1CCCCC1 (stereo not given),0.6%,i,·
CCc1ccc(NCc2cc3c(C)nn(-c4ccccc4)c3[nH]c2=O)cc1,3.6%,i,·
COCCn1c(=O)[nH]c2cc(C(=O)NCCN3CCN(c4cccc(Cl)c4)CC3)ccc2c1=O,-0.6%,i,·
CNC(=O)c1nnn(-c2ccccc2)c1C(=O)NC,-8.7%,i,-0.97
Cn1nc(-c2ccc(C(=O)N3CCN(Cc4ccccc4)CC3)cc2)c2ccccc2c1=O,-3.1%,i,·
Cc1cc(C)cc(OCC(=O)NC2=NCCS2)c1,-2.7%,i,-0.54
S=c1[nH]nc(-c2cccnc2)n1Cc1ccccc1,-7.8%,i,-0.75
O=C(Cc1ccccc1)Nc1ccc(CN2CCOCC2)cc1,-3.4%,i,-0.77
COCCn1c(-c2ccc(OC)cc2)nc2oc3cc(OC)ccc3c(=O)c2c1=O,2.5%,i,·
CCOC(=O)C1CCCN(C(=O)C2CCN(Cc3nc(-c4ccc(Cl)cc4)oc3C)CC2)C1 (stereo not given),-2.2%,i,-0.69
O=C(CSCc1ccc(F)cc1)Nc1nc2c(s1)CCCC2,5.6%,i,·
# Next entries
SMILES,Hsc70 ATP site,MT1-MMP reporter,WNV protease inh
C=CCNC(=O)C1CC(=O)N(c2ccc(OCC(=O)Nc3ccc(C)cc3)cc2)C1 (stereo not given),6.4%,i,-1.3
O=C(Nc1ccncc1)c1ccccc1F,-4.6%,i,-0.22
Cc1cccc(Nc2nc(N)nc(CN3CCN(c4ccccc4)CC3)n2)c1,-9.9%,i,0.46
Cn1c(=O)c2c(nc(OCc3cccnc3)n2Cc2ccccc2)n(C)c1=O,0.2%,i,0.73
Oc1ccccc1CNCCCNCc1ccccc1O,-1.3%,i,0.38
COc1ccc(OC)c(NC(=O)N[C@@H](Cc2ccccc2)C(=O)O)c1,-3.3%,i,0.93
Cc1cc(NC(=O)CCCC(=O)OCC(F)(F)C(F)F)cc(C)c1C(=O)O,-2.8%,i,-1.2
O=C(O)C1CCCN1c1ncnc2c1oc1ccccc12 (stereo not given),3.2%,i,0.0091
Cc1cc2c(c(=O)n1Cc1cccnc1)C(Cc1ccccc1)C(C#N)=C(N)O2 (stereo not given),1.2%,i,-0.1
Cn1c(=O)cc(OCCCC(=O)N2CCN(c3ccccc3)CC2)c2ccccc21,1.2%,i,-0.09
CCn1cc(S(=O)(=O)CC(=O)Nc2cccc(C)c2)c2ccccc21,2.4%,i,-0.69
Cc1ccc2nc(C)cc(OCC(=O)O)c2c1,3.2%,i,1
Nc1nc2sc3c(c2cc1C(=O)N1CCOCC1)CCCC3,-2.6%,i,-0.08
CN1C(=O)C(O)(CC(=O)c2ccccc2O)c2cc(Br)ccc21 (stereo not given),0.1%,i,-0.79
CCCn1c(NCc2cc(OC)ccc2OC)nc2ccccc21,-1.5%,i,-0.93

# Sorted by count of non-hydrogen atoms (ascending): 3 of the compounds above
SMILES,Hsc70 ATP site,MT1-MMP reporter,WNV protease inh
Nc1nc2sc3c(c2cc1C(=O)N1CCOCC1)CCCC3,-2.6%,i,-0.08
CN1C(=O)C(O)(CC(=O)c2ccccc2O)c2cc(Br)ccc21 (stereo not given),0.1%,i,-0.79
Cc1cccc(Nc2nc(N)nc(CN3CCN(c4ccccc4)CC3)n2)c1,-9.9%,i,0.46

# The list goes on:
SMILES,Hsc70 ATP site,MT1-MMP reporter,WNV protease inh
CCOc1ccc(C(=O)Nc2c3c(nn2-c2ccc(F)cc2)CS(=O)C3)cc1 (stereo not given),-0.3%,i,1.2
CN1CCN(S(=O)(=O)c2ccc(Cc3ccc(S(=O)(=O)N4CCN(C)CC4)cc3)cc2)CC1,-0.4%,i,-0.25
CC(=O)CC(=O)Nc1cccc2c1CCCC2,-0.8%,i,1.2
COc1ccc(CCC(=O)Nc2cc(Cl)ccc2N2CCN(C)CC2)cc1,-9.7%,i,·
CCOC(=O)N1CCN(C(=O)CSc2nnc(-c3cc(OC)cc(OC)c3)o2)CC1,-1.2%,i,-1.1
O=C(CC(c1ccco1)S(=O)(=O)c1ccccc1)c1ccc(F)cc1 (stereo not given),-1.3%,i,0.49
CCOC(=O)c1cccc(NC(=O)CSc2nnnn2C)c1,-0.8%,i,1.9
CCCC1CC(C)(C(=O)Cn2[nH]c(=O)ccc2=O)OC1=O (stereo not given),-1.7%,i,0.74
COc1ccc(OC)c(S(=O)(=O)NCc2cn3cccc(C)c3n2)c1,-3.8%,i,1.7
C=CCNC(=O)c1ccc(N(C)S(=O)(=O)c2ccc(OC)cc2)cc1,-1.6%,i,·
O=C(Oc1cccc2c(OC(=O)N3CCCC3)cccc12)N1CCCC1,-2.5%,i,·
CC(C)CC1(C)NC(=O)N(CC(=O)NC(=O)Nc2ccc3c(c2)OCCO3)C1=O (stereo not given),-9.2%,i,-0.58
COc1cccc(N2CC(C(=O)NC3CCCCC3)CC2=O)c1 (stereo not given),-3.7%,i,0.27
CCCCCCCSc1nsc(N)n1,3.7%,i,·
Cc1ccc(S(=O)(=O)N2CCCC(C(=O)NCCCN3CCCCC3C)C2)cc1 (stereo not given),6.6%,i,-1.1

# Fetched by compound from above (2):
SMILES,Hsc70 ATP site,MT1-MMP reporter,WNV protease inh
Cc1nc2ccccc2c(=O)n1/N=C/c1ccc(O)cc1,0.3%,i,-1.3
CNC(=O)c1nnn(-c2ccccc2)c1C(=O)NC,-8.7%,i,-0.97

# New compounds follow
SMILES,Hsc70 ATP site,MT1-MMP reporter,WNV protease inh
CC(C)CNC(=O)c1nc(-c2ccccc2)n(-c2ccccc2)n1,-27%,i,·
CCc1c(C)sc(NC(=O)c2cnn3cccnc23)c1C#N,-1.0%,i,2.6
N#Cc1nn(-c2ccccc2)nc1N1CCCCC1,-0.3%,i,-0.65
O=C(NCc1cccs1)Nc1ccc(Cl)cc1,2.6%,i,·
O=C(Cn1nc(-c2ccc(Cl)cc2)c2ccccc2c1=O)NCC1CCCO1 (stereo not given),-1.4%,i,·
COc1ccc2c(C(=O)CN3CC(C)OC(C)C3)c[nH]c2c1 (stereo not given),-1.4%,i,-0.66
CCC1(C)COC2(OC1)C(=O)Nc1ccccc12 (stereo not given),1.8%,i,-0.86
O=C(CSc1nnnn1C1CCCCC1)N1CCCC1,0.8%,i,-1.5
Cc1nn(C)c(C)c1NC(=O)CSc1nc(Cc2ccccc2)nc2c1cnn2-c1ccccc1,1.4%,i,0.64
COc1ccc(-c2[nH]ncc2-c2cnc(C)s2)c(O)c1,6.2%,i,-1.2
O=C(NCC(F)(F)F)Nc1ncccn1,-1.2%,i,2.3
CC(=O)Nc1nnc(CCN2CCCCC2)s1,-3.2%,i,·
O=C(COc1ccc2ccccc2c1)Nc1cccc2cccnc12,2.5%,i,·
c1ccc2[nH]c(CSc3ncnc4c3oc3ccccc34)nc2c1,-4.9%,i,-1.2
Cn1nnnc1SCC(=O)NC(C)(C)C,3.8%,i,1.4

# Copied from the listing for reference:
SMILES,Hsc70 ATP site,MT1-MMP reporter,WNV protease inh
N#Cc1nn(-c2ccccc2)nc1N1CCCCC1,-0.3%,i,-0.65
O=C(NCc1cccs1)Nc1ccc(Cl)cc1,2.6%,i,·
O=C(Cn1nc(-c2ccc(Cl)cc2)c2ccccc2c1=O)NCC1CCCO1 (stereo not given),-1.4%,i,·
COc1ccc2c(C(=O)CN3CC(C)OC(C)C3)c[nH]c2c1 (stereo not given),-1.4%,i,-0.66
CCC1(C)COC2(OC1)C(=O)Nc1ccccc12 (stereo not given),1.8%,i,-0.86
O=C(CSc1nnnn1C1CCCCC1)N1CCCC1,0.8%,i,-1.5
Cc1nn(C)c(C)c1NC(=O)CSc1nc(Cc2ccccc2)nc2c1cnn2-c1ccccc1,1.4%,i,0.64

# (cont.)
SMILES,Hsc70 ATP site,MT1-MMP reporter,WNV protease inh
COC(=O)c1c(C)[nH]c(C(=O)CN2CCOCC2)c1C,0.5%,i,-0.76
COc1ccc(Nc2nc(NCCO)nc(OC)n2)cc1,4.1%,i,·
CS(=O)(=O)N(CC(N)=O)Cc1ccc(Cl)cc1,3.4%,i,1.5
O=C(C1CCN(S(=O)(=O)c2cccc3cccnc23)CC1)N1CC=C(c2ccccc2)CC1,6.3%,i,-0.83
CCC(C)(C)NC(=O)c1cc(C(=O)OC)cc([N+](=O)[O-])c1,-3.3%,i,·
CCc1cc2c(SCC(=O)c3ccccc3)ncnc2s1,-3.4%,i,·
Cc1c(C(=O)NCc2ccccc2)oc2ccc(S(=O)(=O)N3CCCC3)cc12,-0.3%,i,0.17
